Screens as filed in PubChem BioAssay.
Cruzain inh noDet = cruzain (T. cruzi) inhibition without detergent; P25779; purified cruzain, Z-FR-AMC fluorescence, no detergent; Potency, µM, for inactives: max response, negative = inhibition, actives largely listed as inhibitors; hit rate 2.3% among 200,000; active = well fitted curve in the direction sought with a large enough effect; inconclusive = small, poorly fitted or top-dose-only effect, or another doubt; inactive = no such curve, though single readings can be large; an effect the other way counts as inactive or inconclusive;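 also: plate controls were enzyme without inhibitor for no effect and buffer without enzyme for full effect; nearly all actives have a fitted effect of over 40% in size; top concentration of the series not given in the record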
Target sequence (P25779 123-467 limits assumed): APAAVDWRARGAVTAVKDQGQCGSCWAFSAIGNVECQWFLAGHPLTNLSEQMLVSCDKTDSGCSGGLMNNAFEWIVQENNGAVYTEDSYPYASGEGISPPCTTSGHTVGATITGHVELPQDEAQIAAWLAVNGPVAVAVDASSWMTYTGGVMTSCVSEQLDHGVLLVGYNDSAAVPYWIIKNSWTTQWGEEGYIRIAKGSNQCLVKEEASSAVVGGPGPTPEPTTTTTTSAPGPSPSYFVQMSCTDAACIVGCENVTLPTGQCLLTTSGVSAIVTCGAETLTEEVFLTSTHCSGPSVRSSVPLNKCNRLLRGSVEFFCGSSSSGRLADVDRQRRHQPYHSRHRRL
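Purified cruzain at 1.5 nM, pre-incubated 15 min with compound at room temperature in 100 mM sodium acetate pH 5.5, 5 mM DTT, 0.00005% Triton X-100. Reaction started with 2 uM Z-FR-AMC; AMC fluorescence increase over 60 s gives rate.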
NS1 inh = inhibitors of influenza NS1 protein function | S. cerevisiae slowed by influenza A NS1, growth recovery by OD600 | Potency, µM (highest dose often 46.1 µM), without a hit: at the highest dose activity, positive = more growth | hit rate 0.4% among 270,000; also: actives are rising curves; nearly all actives have a fitted effect of over 50% in size
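Recovery from NS1-induced slow growth read by OD600 in budding yeast switched to galactose assay medium (pH 6.0, -URA) at 1:100 dilution. Compound 23 nl per well; the matching strain lacking NS1 serves as control.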
Cruzain inh Det = blocks cruzain activity in presence of Triton detergent; P25779; purified cruzain, Z-FR-AMC fluorescence, 0.01% Triton; Potency, µM, without a hit: max response, negative = inhibition, actives largely listed as inhibitors; hit rate 0.43% among 200,000; active = well fitted curve in the direction sought with a large enough effect; inconclusive = small, poorly fitted or top-dose-only effect, or another doubt; inactive = no such curve, though single readings can be large; an effect the other way counts as inactive or inconclusive;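 also: plate controls were neutral wells for no effect and buffer without enzyme for full effect; nearly all actives have a fitted effect of over 40% in size; top concentration of the series not given in the record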
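Z-FR-AMC hydrolysis (2 uM substrate) by cruzain (1.5 nM) monitored kinetically at ex 360/em 450 nm after 15 min room-temperature compound exposure; 0.01% Triton X-100, pH 5.5, 5 mM DTT.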
SARS PLpro yeast = blocks SARS-CoV papain-like protease in a yeast assay; hit rate 0.19% among 330,000; Potency, µM (highest dose often 32.9 µM), for the others: at the highest dose activity, positive = growth rescue; S. cerevisiae expressing SARS-CoV PLpro, growth rescue; control for the full effect not named in the record; also: 0% is about no effect; nearly all actives have a fitted effect of over 55% in size; growth read by luminescence after 48 h
StopGo reporter = lowers the luciferase signal of an FMDV 2A StopGo reporter. human cells with a luciferase reporter of 2A StopGo recoding; control for the full effect not named in the record. hit rate 1.2% among 410,000. Potency, µM (doses to about 57.9 µM), for inactives: top-dose signal change, negative = less light. AID 1159524; active = well fitted falling curve with a large enough effect; inconclusive = small, poorly fitted or top-dose-only effect; inactive = no such curve, though single readings can be large or run the other way; tested in HEK293T cells; also: % is scaled to controls: 0 for no effect and ±100 for the full control effect; nearly all actives have a fitted effect of over 45% in size; luciferase light after 4 h
Marburg entry inh = blocks Marburg virus binding to or entry into cells; Marburg virus pseudotyped entry inhibition, cell reporter; control for the full effect not named in the record; about a third of the inactives were read at about 46 µM; Potency, µM (highest dose often 37.8 µM), without a hit: top-dose activity change, negative = inhibition, most hits filed as inhibitors; hit rate 1.8% among 300,000; AID 540276; active = well fitted inhibition curve with a large enough effect; inconclusive = small, poorly fitted or top-dose-only effect, or effect the other way; inactive = flat fitted curve, though single readings scatter; tested in HEK293 cells; about a fifth of its hits are not listed in these tables; also: % is scaled to controls: 0 for no effect and ±100 for the full control effect; luciferase read-out
RE007 growth inh = less growth of the S. pombe RE007 Vpr strain | S. pombe RE007 Vpr strain, BacTiter-Glo ATP luminescence, 24 h; control for the full effect not named in the record | Potency, µM (doses to about 92.2 µM), without a hit: top-dose activity change, negative = less growth | hit rate 0.21% among 360,000 | AID 651644; active = well fitted falling curve with a large enough effect; inconclusive = small, poorly fitted or top-dose-only effect; inactive = no such curve, though single readings can be large or run the other way;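 also: % is scaled to controls: 0 for no effect and ±100 for the full control effect; nearly all actives have a fitted effect of over 50% in size; the assay follows cell death caused by Vpr and the record does not say whether a fall means rescue or toxicity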
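Fission yeast RE007 carrying one integrated HIV-1 vpr copy, seeded at OD 0.01 in PMG+AL medium with 23 nL pinned compound. Grown 24 h at 30 degrees; viability read by BacTiter-Glo luminescence after 5 min.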
LASV entry inh = inhibitors of Lassa virus binding or cell entry. Lassa virus pseudotype entry inhibition, cell reporter; control for the full effect not named in the record. AID 540256. hit rate 1.2% among 300,000. Potency, µM (doses to about 37.9 µM), inactives show at the top dose activity change, negative = inhibition, most hits filed as inhibitors; active means well fitted inhibition curve with a large enough effect; inconclusive means small, poorly fitted or top-dose-only effect, or effect the other way; inactive means flat fitted curve, though single readings scatter; tested in HEK293 cells; also: % is scaled to controls: 0 for no effect and ±100 for the full control effect; nearly all actives have a fitted effect of over 50% in size; luciferase read-out
Numbers without * were called inactive; ? = inconclusive; . = not tested or not shown; [ ] = dose if it differs, or a comment. Unless noted, calls follow the shape of the dose curve; as a rule, active means well fitted rising curve with a large enough effect; inconclusive means small, poorly fitted or top-dose-only effect; inactive means no such curve, though single readings can be large or run the other way. Potency is read from the fitted curve at half-maximal effect.

A first look (two entries):
Structure	Cruzain inh noDet	NS1 inh	Cruzain inh Det	SARS PLpro yeast	StopGo reporter	Marburg entry inh	RE007 growth inh	LASV entry inh
COc1ccccc1-n1c(-c2ccc(Cl)cc2)c[nH]c1=S	.	-10%	.	-2%	16%	.	14%	.
Cc1ccc(C)c(N2CCN(C(=O)Cn3c(C)c4cnn(-c5ccccc5)c(=O)c4c3C)CC2)c1	5%	.	-6.3%	.	?	?	.	?

Main list (from the top)
Structure	Cruzain inh noDet	NS1 inh	Cruzain inh Det	SARS PLpro yeast	StopGo reporter	Marburg entry inh	RE007 growth inh	LASV entry inh
COc1ccccc1-n1c(-c2ccc(Cl)cc2)c[nH]c1=S	.	-10%	.	-2%	16%	.	14%	.
Cc1ccc(C)c(N2CCN(C(=O)Cn3c(C)c4cnn(-c5ccccc5)c(=O)c4c3C)CC2)c1	5%	.	-6.3%	.	?	?	.	?
Cc1ccc(NC(=O)Cn2cccc2)c(Br)c1	-3%	-11%	-0.9%	2.5µM*	38%[activator]	?	-6%	14%
O=C(O)c1nn(CCOc2ccc(Cl)cc2Cl)c(=O)c2ccccc12	.	1%	.	-1%	-17%	?	-11%	?
CC(C)c1ccc(NC(=O)CSC2=Nc3ccccc3C3=NC(CC(=O)NCc4ccc(F)cc4)C(=O)N23)cc1 (stereo not given)	10%	.	-8.4%	.	0%	.	.	-16%[46.1 µM]
Cc1nnc(NC(=O)C2CSC3(C)CCC(=O)N23)s1 (stereo not given)	.	.	.	0%	-8%	1%	1%	17%
CCOC(=O)c1nn(-c2cc(C(=O)OC)cc(C(=O)OC)c2)cc1O	-2%	-11%	2.1%	1%	0%	14%	5%	-20%
O=C(c1ccco1)N(Cc1cccc(Cl)c1)C1CCS(=O)(=O)C1 (stereo not given)	.	3%	.	4%	-7%	14%[46.1 µM]	0%	16%[46.1 µM]
CC(=O)c1cccc(NC(=O)c2cc(=O)[nH]c3ccccc23)c1	.	7%	.	1%	4%	?	13%	?
O=C(O)CCCn1cc(NC(=O)c2ccco2)cn1	.	.	.	-1%	-3%	0%	8%	10%[46.1 µM]
Cc1cccc(C)c1NC(=O)COC(=O)[C@@H]1CCCN1C(=O)c1cccs1	.	.	.	4%	-29%	9%[46.1 µM]	-8%	6%[46.1 µM]
COc1cccc2c1C(=O)c1c(O)c3c(c(O)c1C2=O)CC(O)(C(C)=O)CC3OC1CC(O)C(O)C(C)O1 (stereo not given)	.	.	.	.	-7%	1.4µM*	-7%	?
O=C(CSc1nnc(-c2ccccc2Br)o1)N1CCc2ccccc2C1	11%	-83%	-5.8%	8%	.	12%	7%	-1%
Cc1cc(C)nc(NC(=O)/C=C/c2ccccc2Cl)n1	-7%	-21%	-4.9%	-13%	34%[activator]	?	-9%	-7%
COc1ccnc(Oc2ccc(F)cc2)c1C(=O)N/C=N/OCc1ccc(F)cc1	5%	-3%	-0.1%	-26%	-19%	6%	-10%	3%
COc1ccc(N2CCN(C(=O)CN(CCc3ccccc3)S(C)(=O)=O)CC2)cc1	?	2%	1.1%	7%	.	?	4%	?
COc1cccc(CNC(=O)CCC2CCCN(C(=O)c3cscn3)C2)c1 (stereo not given)	.	-1%	.	0%	11%	.	4%	.
C[C@H](N)c1nnc(SCc2c(Cl)cccc2Cl)o1	-8%	5%	0.2%	-8%	0%	?	-5%[3.69 µM]	0%
C[C@H](NC(=O)c1ccccc1)C(=O)N1CCN(c2ccccc2)CC1	.	25%	.	1%	21%	2%[46.1 µM]	-1%	-20%
Oc1ccc(Nc2nnc(-c3ccc(O)cc3)c3ccccc23)cc1	.	.	.	0%	-16%	9%[46.1 µM]	25%	-13%
CN1CCN(S(=O)(=O)c2ccc(N3CCN(c4ccc(O)cc4)CC3)c([N+](=O)[O-])c2)CC1	.	.	.	-1%	0%	?	-15%	-3%
CCOC(=O)N1CCN(C(=O)c2ccc(NS(C)(=O)=O)cc2)CC1	3%	-6%	1.3%	1%	-8%	15%	-3%	2%
COc1cccc(CN2CCC(n3nccc3NC(=O)CCCc3ccccc3)CC2)c1	.	-6%	.	1%	-12%	.	2%	.
Cc1cccc(N2C(=O)N(Cc3cc(=O)n4ccccc4n3)c3ccccc3S2(=O)=O)c1	?	.	-5.5%	.	-5%	.	.	-39%[46.1 µM]
COC(=O)C1C(=O)C2=C(CC1C)NC(C)=C(C(=O)OCc1ccc(OC)cc1)C2c1ccc(C)o1 (stereo not given)	?	-45%	-3.7%	0%	0%	-27%	11%	?

Structure	Cruzain inh noDet	NS1 inh	Cruzain inh Det	SARS PLpro yeast	StopGo reporter	Marburg entry inh	RE007 growth inh	LASV entry inh
COc1cc(/C=C2\C(=O)N(CCC#N)N=C2C)c(Br)cc1OC(C)C	?	-7%	-1.0%	-19%	3%	-2%	1%	-2%
COCC(=O)Oc1c(Sc2ccccc2[N+](=O)[O-])c(C)nn1C(C)(C)C	.	.	.	-2%	-10%	4%[46.1 µM]	6%	16%
COc1ccc(NC(=O)C2C3C=CC4(O3)C2C(=O)N(CCN2CCCCC2C)C4C(=O)NC2CCCCC2)cc1 (stereo not given)	.	-9%	.	-2%	-1%	-19%[46.1 µM]	-16%	.
COc1cc(/C=N/NC(=O)CSc2cc(C)c(Br)cc2C)ccc1O	-17%	17%	-13%	-8%	?	-17%	-2%	?
Cc1ccc2sc(N(CCCN(C)C)C(=O)c3ccc(S(=O)(=O)N(C)C4CCCCC4)cc3)nc2c1C	.	.	.	-4%	-4%	?	8%	13µM*
CN(C)CCN(C(=O)c1ccc(S(=O)(=O)N(C)c2ccccc2)cc1)c1nc2ccc(Cl)cc2s1	.	12%	.	-3%	-5%	?	-6%	-24%[46.1 µM]
C=CCn1c(=NC(=O)C2COc3ccccc3O2)sc2cc(S(N)(=O)=O)ccc21 (stereo not given)	-2%	8%	-6.3%	-17%	32µM*	13%	-7%	2%
CCNC(=S)N1CCN(CCNC2=CC(=O)CC(C)(C)C2)CC1	.	2%	.	-1%	7%	.	3%	.
CCOC(=O)Nc1ccc([N+](=O)[O-])cc1OC	.	.	.	.	10%	10%	0%	0%
Cn1c(=O)oc2cc(S(=O)(=O)NCCC(=O)NC3CCCC3)ccc21	-11%	3%	4.8%	-1%	11%	-2%	-1%	16%[14.3 µM]
CNc1nc(-c2ccc([N+](=O)[O-])cc2)cs1	-13%	0%	-1.7%	6%	-19%	2%[46.1 µM]	?	18%
COc1ccc(-c2noc(-c3cccnc3NCc3ccco3)n2)cc1	20%	.	5.4%	.	0%	3%[46.1 µM]	.	20%[46.1 µM]
Cc1ccc(F)cc1NC(=O)c1cnccn1	.	-3%	.	1%	-1%	11%	6%	-13%
COc1cc2ccccc2cc1C(=O)N(CCN(C)C)c1nc2c(OC)ccc(OC)c2s1	.	-9%	.	-6%	?	?	7%	?
COc1ccc(OC)c2c1cc(C(=O)N[C@H](C(=O)N1CCC(C(=O)O)CC1)C(C)C)n2C	.	1%	.	11%	-19%	?	-18%	-1%[46.1 µM]
CC1(C)Cc2nc3oc4c(=O)n(CC(=O)Nc5cccc(Cl)c5)cnc4c3cc2CO1	.	-1%	.	2%	3%	-15%[46.1 µM]	-8%	?
COc1ccc(NC(=O)c2cc(-c3ccccc3Cl)no2)cc1	-1%	-14%	0.5%	1%	43%[activator]	-1%	-4%	11%
COc1cc(NC(=O)c2nc3nc(C)cc(C(F)F)n3n2)c(OC)cc1Cl	-6%	.	-0.7%	.	-11%	?	.	5%[46.1 µM]
CCc1nc2c(sc3nc(N4CCOCC4)c4c(c32)CC(C)(C)OC4)c(=O)o1	16%	13%	-4.8%	1%	.	-1%	.	.
O=C(NCC(c1ccccc1)c1ccccc1)c1nn(-c2ccccc2Cl)nc1CO	22%	.	-3.6%	.	?	-28%[46.1 µM]	.	?
C=CCn1c(-c2cccc(OC)c2OC)n[nH]c1=S	.	-7%	.	0%	?	?	0%	-26%
CN(C)C(=O)c1ccc(NC(=O)Cn2nnnc2-c2ccccc2F)cc1	-5%	.	-0.4%	.	-1%	3%[46.1 µM]	.	12%[46.1 µM]
COc1ccccc1CNC(=O)CCn1c(=O)oc2ccccc21	0%	?	3.3%	?	-10%	.	2%	.
COc1ccc(OCc2nnc3n2N=C(c2ccc(OC)cc2)CS3)cc1	2%	-62%	-3.8%	5%	-17%	.	-5%	.
O=S(=O)(Nc1ccccc1Cl)c1cc(NC(=S)NCCN2CCOCC2)ccc1Cl	.	6%	.	1%	24%	-10%[46.1 µM]	-9%	?

Structure	Cruzain inh noDet	NS1 inh	Cruzain inh Det	SARS PLpro yeast	StopGo reporter	Marburg entry inh	RE007 growth inh	LASV entry inh
CSc1cccc(NC(=O)CN(C)S(=O)(=O)c2ccc3c(c2)n(C)c(=O)c(=O)n3C)c1	-2%	.	-4.0%	.	18%	12%[46.1 µM]	.	-4%[46.1 µM]
c1csc(-c2nc3c4ccccc4c4ccccc4c3[nH]2)c1	-20%	6%	-1.0%	-70%	-30%	?	-17%	-28%
CCCn1c(SCC(=O)NC2CCCC2)nnc1-c1ccccn1	.	-3%	.	3%	-6%	.	-1%	.
COCCCn1c(SCc2ccccc2)nc2cc(OC)c(OC)cc2c1=N	?	13%	-15%	-6%	-16%	-1%	-16%	?
CCOC(=O)C1CCN(c2c(NC3CCCCCCC3)c(=O)c2=O)CC1	2%	-2%	-2.9%	-21%	8%	9%	4%	13%
CCOC(=O)c1[nH]c(C)c(CC(C)C)c1C	.	.	.	-1%	9%	?	1%	?
COc1ccc(Cl)cc1NC(=O)NCC1CCN(Cc2ccccc2F)CC1	-7%	-3%	0.2%	-1%	?	?	-4%	-5%[46.1 µM]
CCN(CC(=O)NCc1ccc(F)cc1)C(=O)/C=C/c1cc(OC)ccc1OC	.	16%	.	3%	-6%	?	-6%	?
